StopGo FLuc – FMDV 2A StopGo reporter, firefly signal. HEK cells with a luciferase reporter of 2A StopGo recoding. Potency, µM (titrated, usually from 57.5 µM), for the others: at the top dose signal change, negative = less light. 120,000 tested, 0.23% active. AID 1745856; active = well fitted falling curve with a large enough effect; inconclusive = small, poorly fitted or top-dose-only effect; inactive = no such curve, though single readings can be large or run the other way; note: nearly all actives have a fitted effect of over 60% in size; overnight with compound
StopGo RLuc – FMDV 2A StopGo reporter, Renilla signal. HEK cells with a luciferase reporter of 2A StopGo recoding. Potency, µM (titrated, usually from 57.5 µM), for the others: top-dose signal change, negative = less light. 120,000 tested, 0.32% active; active means well fitted falling curve with a large enough effect; inconclusive means small, poorly fitted or top-dose-only effect; inactive means no such curve, though single readings can be large or run the other way; note: nearly all actives have a fitted effect of over 55% in size; overnight with compound
Active calls of the source: *; ? = inconclusive; [ ] = another dose, or the depositor's remark. % is set by controls: 0 for no effect and ±100 for the full control effect; potency is the fitted concentration of half-maximal effect.

SMILES	StopGo FLuc	StopGo RLuc
CN(CCc1noc(COc2cccc(F)c2)n1)C(=O)c1ccccc1C(F)(F)F	22%	13%
Cc1ccc(S(=O)(=O)Nc2cccc(S(=O)(=O)C3CCCC3)c2)c(C)c1	-5%	116%[activator]
COc1c(C)cccc1C(=O)Nc1sc2c(c1C(N)=O)CCCC2	220%[activator]	38%[activator]
N#Cc1ccc(OCCN2CCCc3ccccc32)cc1	0%	8%
CCCCCCc1ccc(N=Cc2ccc(OCC(C)CC)cc2O)cc1 (stereo not given)	8%	-8%
CCN1CCN(c2cc(C)c3cc(NC(=O)c4cc(OC)c(OC)c(OC)c4)ccc3n2)CC1	12%	83%[activator]
Cc1ccc(-c2nc3c4ccccc4n(CC(=O)N4CCN(c5ccc(F)cc5)CC4)c(=O)n3n2)cc1	33%[activator]	14%
COc1cc(C(=O)NCC2(c3ccccc3)CC2)cc(OC)c1OC	25%	34%[activator]
CCCCNc1nc(-c2ccc(N(CC)S(C)(=O)=O)cc2)cs1	?	?
CC(C)Nc1nc(-c2ccc(NS(C)(=O)=O)cc2)cs1	127%[activator]	5%
CC(=O)NCC(=O)N(c1ccc(C)cc1)C1(C(=O)Nc2ccccc2C)CCCCC1	-6%	1%
Cc1ccc(NC(=O)CN(C)C(=O)c2cc3ccc(F)cc3nc2C)cc1	-13%	-12%
COC(=O)c1cc(-c2ccccc2)nc2ccccc12	12%	-1%
CCN(CC)CCNC(=O)c1ccc2c(c1)NC(=O)C(CS(=O)(=O)Cc1cccc(Br)c1)N2 (stereo not given)	-6%	4%
O=C(CS(=O)(=O)c1cccc2nsnc12)Nc1cc(F)ccc1F	-26%	21%
COc1ccc(/C=C/C(=O)Nc2ccc3nc(N4CCC(C)CC4)cc(C)c3c2)cc1OC	?	14%
Cc1cccc(Nc2nnc(-c3ccc(C)c(S(=O)(=O)N4CCCCC4)c3)c3ccccc23)c1	-13%	-12%
Cc1ccccc1CNC(=O)Cn1c(=O)c2cccn2c2cccnc21	-5%	-1%
Cc1ccc(NC(=O)c2oc3ccc(S(=O)(=O)N4CCCCC4)cc3c2C)cc1Cl	-16%	-9%
Cc1ccccc1OCCOc1ccc2ccc(=O)oc2c1	155%[activator]	8%

Another view of 2 compounds above:
Values run as follows: StopGo FLuc	StopGo RLuc
Cc1cccc(Nc2nnc(-c3ccc(C)c(S(=O)(=O)N4CCCCC4)c3)c3ccccc23)c1
    -13%	-12%
CCCCNc1nc(-c2ccc(N(CC)S(C)(=O)=O)cc2)cs1
    ?	?

Looked up by structure from above:
SMILES	StopGo FLuc	StopGo RLuc
CN(CCc1noc(COc2cccc(F)c2)n1)C(=O)c1ccccc1C(F)(F)F	22%	13%
Cc1ccc(-c2nc3c4ccccc4n(CC(=O)N4CCN(c5ccc(F)cc5)CC4)c(=O)n3n2)cc1	33%[activator]	14%
O=C(CS(=O)(=O)c1cccc2nsnc12)Nc1cc(F)ccc1F	-26%	21%

(more compounds)
SMILES	StopGo FLuc	StopGo RLuc
Fc1ccc(CSc2ncnc3nc[nH]c23)cc1	0%	-1%
O=C1CN(C(=O)c2ccc(S(=O)(=O)N3CCCC3)cc2)C(c2ccccc2)c2cc(Cl)ccc2N1 (stereo not given)	8%	68%[activator]
Cn1c(=O)c2[nH]c(-c3ccccc3Cl)nc2n(C)c1=O	58%[activator]	5%
O=C(CSc1ccccc1F)c1ccc2c(c1)OCCO2	163%[activator]	65%[activator]
Cc1ccc2cccc(NC(=O)C(C)(C)Oc3ccc(Br)cc3)c2n1	5%	4%
Cc1cc(NC(=O)N2CCSc3ncccc32)ccc1Br	48%[activator]	1%
Cc1nnc(NC(=O)CSc2nnc(C3CC3)n2C(C)C)s1	3%	-2%
COc1ccc2c(c1)C(O)(CC(=O)c1ccc(F)cc1)C(=O)N2 (stereo not given)	17%	5%
CCCCNC(=S)N/N=C1\CC2CC=CC12 (stereo not given)	23%	46%[activator]
O=C(Nc1cccc(Cl)c1)c1c(-c2ccc(F)cc2)nc2n1CCS2(=O)=O	-9%	-6%
COc1cc(OC)c(C2CC(=O)Nc3ccsc32)cc1OC (stereo not given)	17%	0%
O=C(Nc1ccc(C(F)(F)F)oc1=O)c1ccccc1	0%	0%
CCc1cccc(-n2nnc(-c3nc(-c4cccs4)no3)c2N)c1	43%[activator]	-2%
CCOC(=O)C1CCN(C(=O)c2nn(-c3ccc(C)cc3)c(=O)n(C)c2=O)CC1	-16%	-12%
COc1cccc(CNC(=O)c2cccc(Oc3ccccc3)c2)c1	17%	21%
Cc1ccc(-c2cc(C(=O)O)c3cc(Cl)ccc3n2)s1	142%[activator]	38%[activator]
CC(=O)c1ccc(N2CCN(C(=O)Cn3cnc(S(=O)(=O)N4CCOCC4)c3)CC2)cc1	1%	1%
CCOc1ccccc1NC(=O)c1ccc(C)c(S(=O)(=O)Nc2cccc(C)c2C)c1	-17%	314%[activator]
CC(C)(C)C(=O)C[S+]1CCCC1	-7%	-10%
O=C(Nc1ccccc1-c1ccccc1)c1ccc(F)cc1	39%	3%
CN(Cc1ccccc1)C(=O)c1ccc2c(c1)N(Cc1ccc(Cl)cc1)C(=O)c1ccccc1S2=O (stereo not given)	-15%	2%
CCN(CC)S(=O)(=O)c1ccc(NS(=O)(=O)c2cccc(C)c2)cc1	3%	228%[activator]
COc1cc(OC)c(NC(=O)c2nc(-c3ccncc3)no2)cc1Cl	-10%	-19%
CCC(Cc1ccccc1)NC(=O)Cn1ncc2c3ccccc3n(Cc3ccccc3)c2c1=O (stereo not given)	-11%	-9%
CCC(C(=O)Nc1nnc(COC)s1)c1ccccc1 (stereo not given)	32%	18%
CC1Sc2ccc(C(=O)NNC(=O)CSc3cccc4cccnc34)cc2NC1=O (stereo not given)	12%	2%
O=C(NCCc1ccccn1)c1cc(-c2ccccc2)nc2ccccc12	10%	0%
COc1ccccc1CNCc1ccc(C(=O)O)s1	5%	-9%
NC(=O)C(Sc1ncc(C(F)(F)F)cc1Cl)c1ccccc1 (stereo not given)	14%	9%
Cc1cc(C)cc(OCCn2c(C3CC(=O)N(c4ccccc4Cl)C3)nc3ccccc32)c1 (stereo not given)	-2%	26%
CC(=O)c1c(C)oc2c(Cl)cc(NS(=O)(=O)c3ccc(Cl)cc3)cc12	-20%	-3%
COc1ccccc1C1CC(=O)N(c2ccc(C)cc2)C2=C1C(=O)OC2 (stereo not given)	-6%	-10%
O=C(NCc1cccnc1)C(=O)NCC(c1cccnc1)N1CCN(c2ccccc2)CC1 (stereo not given)	-7%	-12%
CCCNC(=O)c1ccc(OC)c(S(=O)(=O)NCC)c1	-6%	21%
CCCNC(=O)C(C)n1nc(C)c2c(C)n(-c3ccccc3)nc2c1=O (stereo not given)	-14%	-11%
CCCCN1CC(c2nc3ccccc3n2CCCCOc2cc(C)ccc2C)CC1=O (stereo not given)	-19%	9%
OCCN1C[C@H](O)[C@@H](O)[C@H](O)[C@H]1CO	-16%	-11%
CC(C)C1=C(O)C2(CC2c2ccc(-c3ccccc3)cc2)C(C)CC1 (stereo not given)	9%	-6%
NC(=O)c1cc(S(=O)(=O)NCc2cccc(Br)c2)cs1	-26%	10%
C[C@H](NC(=O)[C@H]1N2C(=O)c3ccccc3C2SC1(C)C)C(=O)NCc1ccc(F)cc1 (stereo not given in full)	-1%	50%[activator]
Cc1c(CNCc2ccc(Cl)cc2)c(C(=O)O)c(C)n1Cc1ccc(F)cc1	-32%	1%
CCN(CC)c1nc2ccccc2nc1C(=O)Nc1ccc(F)c(F)c1	3%	7%
COc1ccc(C)cc1NC(=O)c1cc2c(s1)-c1ccccc1SC2	-7%	-2%
COc1ccc2cc(-c3nc(-c4ccccc4C)no3)c(=O)oc2c1	91%[activator]	-12%
COc1ccc(Br)c(C(=O)Nc2cc3c(cc2N2CCCC2)n(C)c(=O)c(=O)n3C)c1	-17%	-6%
O=C(Nc1nn[nH]n1)c1cccc(S(=O)(=O)N2CCCCCC2)c1	1%	-15%
COc1ccc(C2CC(=O)Nc3c2c(=O)nc(SCc2ccccc2)n3C)cc1Br (stereo not given)	0%	17%
N#Cc1c(N)n[nH]c1CCCNC(=O)c1cc(-c2cccs2)nc2ccccc12	0%	91%[activator]
COc1ccc(C(=O)Nc2ccc(N3CCN(S(C)(=O)=O)CC3)cc2)cc1OC	-2%	9%
COc1ccc(-n2nc3ccc(NC(=O)c4ccc(C#N)cc4F)cc3n2)cc1Cl	-10%	-10%
CCOc1ccc(N2CC(C(=O)Nc3ccccn3)CC2=O)cc1 (stereo not given)	4%	6%
CCN(Cc1cc2ccccc2[nH]c1=O)C(=O)c1cccc(Cl)c1	8%	-1%
CCN(CC)c1ccc(-c2nnc(SCCS(=O)(=O)c3ccc(Br)cc3)o2)cc1	50%[activator]	7%
CCC(Sc1nc2ccccc2c2nc(CCc3c(C)n[nH]c3C)nn12)C(=O)Nc1ccc(OC)cc1 (stereo not given)	-13%	-14%
CC(C)CCNC(=O)c1c(-n2cnnn2)sc2c1CCCC2	-5%	1%
CC(=O)c1ccc(C(=O)N(C)C(C)c2ccc(Cl)cc2)s1 (stereo not given)	20%	21%
COc1ccc(-c2cc3ccc(OC(C)=O)cc3oc2=O)cc1OC	74%[activator]	11%
CC(C)c1ccc(NC(=O)CSc2nc(=O)n(Cc3cccnc3)c3c2CCC3)cc1	?	8.9µM*
Clc1ccc(-c2cn3cc(Br)ccc3n2)cc1	172%[activator]	-3%
O=c1c2c3c(sc2nnn1CCCCOc1ccc(Cl)cc1)CCCC3	-18%	-12%

Molecules shown so far that contain a furan ring, fused or not, in the order listed:
SMILES	StopGo FLuc	StopGo RLuc
Cc1ccc(NC(=O)c2oc3ccc(S(=O)(=O)N4CCCCC4)cc3c2C)cc1Cl	-16%	-9%
CC(=O)c1c(C)oc2c(Cl)cc(NS(=O)(=O)c3ccc(Cl)cc3)cc12	-20%	-3%

Following part:
SMILES	StopGo FLuc	StopGo RLuc
CNC(=O)c1cccc(I)c1	13%	15%
O=C(Nc1ccccc1C(F)(F)F)C12CC3CC(CC(C3)C1)C2	-7%	-7%
O=C(Cn1c(=O)c2cccn2c2ccc(F)cc21)N1CCN(c2ccc(F)cc2)CC1	-26%	-21%
O=C(CN1C(=O)COc2ccc(S(=O)(=O)N3CCOCC3)cc21)N1CCN(c2ccc(Cl)cc2)CC1	-12%	-4%
Cc1ccc(-n2cnc3cc(C(=O)NCCC4=CCCCC4)ccc32)c(C)c1	-2%	-4%
Cc1cc(C)cc(NC(=O)Cn2c(-n3nc(C)cc3C)nc(-c3ccccc3)cc2=O)c1	-10%	-7%
COc1ccc(CCNC(=O)CCCn2c(=O)c3ccccc3n(CC(=O)Nc3c(C)cc(C)cc3C)c2=O)cc1OC	27%	25%
Cc1sc(NC(=O)C(Cc2ccccc2)Cc2ccccc2)c(C#N)c1C	4%	5%
CC(O)c1nc2ccccc2s1 (stereo not given)	116%[activator]	-7%
CCC(C)(CNC(=O)NCc1csc(C)n1)N1CCOCC1 (stereo not given)	-7%	3%
CCCCCn1c(CNC(=O)c2ccc(F)cc2)nc2ccccc21	74%[activator]	0%
Cn1c(=O)c2c(SCC(=O)NCc3ccco3)nc(-c3cccc(F)c3)nc2n(C)c1=O	-11%	-5%
CCCc1cc(=O)n2[nH]c(NC(=O)c3ccccc3Cl)nc2n1	4%	-4%
CCOC(=O)c1sc(N)c(C#N)c1CSCc1ccccc1	-6%	-9%[1.06 µM]
Cc1cccc(-c2nc(C#N)c(N3CCN(c4ccccc4)CC3)o2)c1	19%	2%
COc1ccc(CC(=O)Nc2nnc3n2CCS3)cc1OC	4%	-12%
Cc1cccc(OCC(=O)NCCc2nc3ccccc3[nH]2)c1C	-6%	-11%
CCOc1ccc(NC(=O)Cn2cnc3c(nnn3Cc3ccc(C)cc3)c2=O)cc1	-6%	1%
O=C(NCC1CCN(Cc2ccccc2F)CC1)Nc1ccc(F)c(Cl)c1	-27%	-27%
Cc1ccc(C)c(NC(=O)c2cnc(N3CCCC3)nc2C)c1	-8%	-7%
O=S(=O)(c1ccc(-c2csc(Nc3ccc(F)cc3)n2)cc1)N1CCCCC1	-1%	-5%
CCCCc1nn2c(=O)cc(COC(=O)c3ccc(NC(=O)c4ccccc4C)cc3)nc2s1	-26%	9%
Cc1cccc(CN2CCN(Cc3ccccc3F)CC2)c1	15%	3%
Cc1c(CC(=O)O)c(=O)oc2c(C)c(OCc3cccc(Cl)c3)ccc12	0%	-3%
O=C(Nc1cc(NC(=O)c2ccccc2Cl)ccc1Cl)c1ccccc1	75%[activator]	29%
CC(=O)c1c(C)[nH]c(-c2csc(CC(=O)Nc3ccccc3C)n2)c1C	-26%	-2%
Cc1cc(-c2ccc(C)c(S(=O)(=O)N3CCCC(C)C3)c2)on1 (stereo not given)	?	?
COc1cc(NC(=O)CCc2nnc3c(=O)n(-c4ccc(C)c(C)c4)ccn23)cc(OC)c1OC	6%	-16%
CC(COc1cccc(C(F)(F)F)c1)CN1CCC(C(O)(c2ccccc2)c2ccccc2)CC1 (stereo not given)	-9%	0%
O=C(Oc1ccccc1)c1cnc2ccccc2n1	0%	0%
CCOc1ccc(CCNC(=O)Cn2nc(CC)n3c(cc4sc(CC)cc43)c2=O)cc1OCC	23%	-19%
Cc1ccc(S(=O)(=O)c2c(Nc3cccc(Cl)c3)sc(C(=O)c3ccc4c(c3)OCO4)c2N)cc1	-4%	11%

In a second layout: results already given.
Compound: COc1cc(NC(=O)CCc2nnc3c(=O)n(-c4ccc(C)c(C)c4)ccn23)cc(OC)c1OC
- StopGo FLuc = 6%
- StopGo RLuc = -16%
Compound: Cc1cccc(CN2CCN(Cc3ccccc3F)CC2)c1
- StopGo FLuc = 15%
- StopGo RLuc = 3%

This is a subset, so the mix of outcomes need not match the whole.
